# Assay outcomes (PubChem BioAssay)
# Arbovirus anti – blocks arbovirus infection | arbovirus infection cell-based antiviral screen | inhibition, % at 10 µM | hit rate 0.37% among 200,000 | AID 1251;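 active = inhibition from about 30%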;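 note: bluetongue infection of BSR cells; cell survival read as ATP light after 72 h; 0% = infected wells without compound and 100% = uninfected wells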
# Mtb growth – M. tuberculosis H37Rv growth inhibitors, H37Rv strain (AID 1626). M. tuberculosis H37Rv growth inhibition; higher % means a stronger effect. inhibition, % at 10 µM; hits with a dose series show IC50 in µM. hit rate 0.95% among 220,000;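 active = confirmed in a dose series; inconclusive = inhibition above 80% but not taken into the dose series; inactive = below 80% or under 30% at every dose of the series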;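 note: bacteria incubated seven days before Alamar blue readout; 0% = bacteria only wells and 100% = bacteria with antibiotic wells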
# Mtb bLac sens – beta-lactam sensitization of Mtb H37Rv; M. tuberculosis H37Rv growth with meropenem, percent inhibition; hits of this screen are not shown here; inhibition, % at 25 µM; hit rate 0.27% among 330,000;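 active = about 74% or more and at least 40 points above the plate without the antibiotic, then above 30% in a dose series; inconclusive = first-round hits that could not be retested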;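 note: growth measured after seven days incubation then overnight dye step; 0% = bacteria only wells and 100% = bacteria with antibiotic; twin plates without the antibiotic show which effects depend on it; some results filed as inactive read as strong as hits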
# RecA intein inh – Mtb RecA intein splicing inhibition. inhibition, %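 (about 9 µM by stock and volumes)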. cell-free RecA intein splicing, fluorescence. P9WHJ3. AID 2221. hit rate 0.75% among 290,000; in the data active = inhibition above about 30%; inconclusive = no clear call, values can overlap the other calls;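 note: 0% = vehicle wells and 100% = reference inhibitor control wells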
# Target sequence (P9WHJ3 whole entry, looked up): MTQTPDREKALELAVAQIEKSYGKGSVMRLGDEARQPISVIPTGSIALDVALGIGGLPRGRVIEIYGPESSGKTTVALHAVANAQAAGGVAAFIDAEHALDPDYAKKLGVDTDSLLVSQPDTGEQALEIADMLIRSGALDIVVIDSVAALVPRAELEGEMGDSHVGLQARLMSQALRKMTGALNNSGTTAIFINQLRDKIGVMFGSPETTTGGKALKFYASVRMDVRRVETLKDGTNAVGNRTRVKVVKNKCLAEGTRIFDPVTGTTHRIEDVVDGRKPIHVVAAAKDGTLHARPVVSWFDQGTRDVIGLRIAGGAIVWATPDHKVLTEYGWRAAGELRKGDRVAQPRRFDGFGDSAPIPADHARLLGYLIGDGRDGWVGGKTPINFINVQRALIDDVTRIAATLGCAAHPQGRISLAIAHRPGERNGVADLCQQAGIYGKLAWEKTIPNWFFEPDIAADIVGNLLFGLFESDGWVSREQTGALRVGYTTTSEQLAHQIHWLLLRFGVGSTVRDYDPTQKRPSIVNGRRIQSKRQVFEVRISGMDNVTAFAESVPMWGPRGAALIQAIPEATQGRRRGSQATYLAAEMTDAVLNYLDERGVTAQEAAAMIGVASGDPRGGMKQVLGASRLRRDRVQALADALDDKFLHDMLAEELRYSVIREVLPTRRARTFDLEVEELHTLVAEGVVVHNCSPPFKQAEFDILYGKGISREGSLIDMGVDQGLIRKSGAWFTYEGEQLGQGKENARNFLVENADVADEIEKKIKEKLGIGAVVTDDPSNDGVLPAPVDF
# YopH inh – inhibitors of Yersinia enterocolitica YopH tyrosine phosphatase; AID 898; inhibition, %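 (about 10 µM by stock and volumes)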; fluorescence Ex485/Em525; hit rate 0.16% among 140,000;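 active = inhibition of 50% or more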;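 note: controls were vehicle for no effect and minimum signal wells for full effect; inactives centre near -20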
# Arbovirus anti repeat – also measured in Arbovirus anti; calls as there; inhibition, %; measured here: 10K subset replicate screen; many hits read low in the repeat;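 first of two repeat runs on a subset; 0% = infected and 100% = uninfected wells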
# Active calls of the source: *; ? = inconclusive; nt = no result given; & = joins results of further samples. The list is partial; the hit share may differ from the screen's.
SMILES,Arbovirus anti,Mtb growth,Mtb bLac sens,RecA intein inh,YopH inh,others
N[C@@H](Cc1ccccc1)c1nnc(SCc2ccccc2Cl)o1,-10,-5%,-13,0.5,-7,
CCCCn1c(O)c(C(C)=NC(Cc2c[nH]c3ccccc23)C(=O)OC)c(=O)[nH]c1=O (stereo unspecified),10,-2%,9,1.5,-172,
Cc1cnc(NC(=O)c2ccccn2)s1,nt,?,97,-1.1,nt,
O=C(/C=C/c1ccc(Cl)cc1Cl)c1cccnc1,-32,3µM*,100,5.5,1,
Cc1ccc(C(=O)N/C(=C\c2cccc([N+](=O)[O-])c2)C(=O)NCc2ccncc2)cc1,4,2%,0,0.2,-25,
O=S(=O)(Cc1ccccc1)Nc1ccccc1,nt,nt,3,-7.3,nt,
O=C(Cc1cccs1)N(Cc1ccco1)C1(C(=O)NC2CCCCC2)CCCCC1,-24,-3%,-6,0.7,-14,
O=C(O)COc1ccccc1/C=N/NC(=O)c1cccc(S(=O)(=O)N2CCOCC2)c1,19,-1%,-2,6.1,nt,
Cc1cc([N+](=O)[O-])nn1CCCC(=O)Nc1cccc(Cl)c1Cl,-4,12%,-6,1.4,nt,
Cc1ccc(S(=O)(=O)n2nc(C)cc2N)cc1,5,15%,-1,0.6,nt,
CN(C(=O)COC(=O)C1CCN(S(=O)(=O)c2ccc3c(c2)OCCO3)CC1)C1CCS(=O)(=O)C1 (stereo unspecified),nt,nt,-1,0.3,nt,
COc1ccc(OCCC(=O)Nc2ccc(S(N)(=O)=O)cc2)cc1,nt,nt,5,-1.0,nt,
CN=C1S/C(=C\c2ccc(O)c(Br)c2)C(=O)N1C,nt,nt,11,-4.3,nt,
CC(=O)Nc1ccc(C(=O)NNC(=O)Cc2ccccc2)cc1,-3,-9%,-5,2.1,nt,
COc1cccc(/C=C(\C#N)c2nc3ccccc3[nH]2)c1OCC(=O)O,nt,nt,3,-3.5,nt,
COc1cccc(/C=C/C(=O)NNC(=O)c2ccncc2)c1,nt,nt,92,2.3,nt,
COc1ccc(NC(=O)c2nc[nH]c2C(=O)N(C)Cc2ccccc2)cc1,nt,24%,48,0.8,nt,
Cc1c(O)c(CN2CCCCC2)cc2c3c(c(=O)oc12)CCC3,-10,-3%,-12,-376,-4,
COCC(C)NC(=O)c1ccc2c(c1)S(=O)(=O)c1ccccc1C2=O (stereo unspecified),nt,nt,-1,-3.4,nt,
C#CCOc1ccccc1CNc1ccccc1,-1,13%,8,3.4,-37,
CCN(CC(=O)Nc1ccc2c(c1)OCCO2)C(=O)c1ccc(C)c(S(=O)(=O)N2CCOCC2)c1,nt,nt,-7,-1.0,nt,
COc1ccc(C2NC(C(=O)O)Cc3c2[nH]c2ccccc32)cc1CN1CCN(c2ccc(F)cc2)CC1 (stereo unspecified),nt,15%,13,-5.1,nt,
N/C(=N\N=C/c1ccc(F)cc1)N/N=C\c1ccc(F)cc1,nt,nt,35,21,nt,
CCOc1ccc(/C=N/Nc2cc(N3CCOCC3)nc(C)n2)c(O)c1,nt,nt,85,0.0,nt,
Cc1ccc(C(=O)OCC(=O)Nc2ccccc2Cl)c(O)c1,nt,7%,-6,-3.1,nt,
Cc1nn2c(COc3ccc(NC(=O)c4ccccc4)cc3)nnc2c2ccccc12,-28,3%,2,-3.8,-23,
O=[N+]([O-])c1ccc(N2CCN(c3ccc(F)cc3)CC2)cn1,nt,nt,0,0.6,nt,
CC(=O)N1CCOc2ccc(S(=O)(=O)N(C)c3cccc(C)c3)cc21,nt,nt,-7,2.8,nt,
Cc1ccc(C)c(N2CCN(C(=O)Cn3c(=O)oc4cc(S(=O)(=O)N5CCCC5)ccc43)CC2)c1,nt,nt,0,0.4,nt,
COc1ccccc1NC(=O)COC(=O)c1ccc([N+](=O)[O-])s1,-5,0%,98,-4.3,nt,
Cn1ccnc1P(=S)(c1nccn1C)c1nccn1C,1,-3%,2,1.1,-4,
CCCNC(=O)C/C(C)=N/NC(=O)C(=O)Nc1ccccn1,11,?,92,-3.2,nt,
COc1ccccc1CNC(=O)C(=O)NCC1OCCN1S(=O)(=O)c1ccccc1 (stereo unspecified),nt,nt,-10,-1.7,nt,
COc1ccc(Cc2noc(CN3CCCN(Cc4ccc(F)cc4)CC3)n2)cc1OC,-6,0%,-5,-0.6,nt,
COC(=O)C1=C(C)N(CCc2cc(OC)c(OC)c(OC)c2)C(=O)N[C@H]1c1ccc(Br)cc1,-19,nt,34,-2.8,-14,
COc1ccccc1Cn1c(=S)[nH]c2cc(C(=O)NC(C)C)ccc2c1=O,nt,nt,7,-4.3,nt,
Cc1cc(=O)c2cccc(Br)c2[nH]1,1,2%,-9,-1.6,2,
COc1ccc(CN2CCNCC2)c(OC)c1OC,nt,nt,2&1,-4.2,nt,
O=C(Nc1ccc(Br)cc1)c1cc2ccccn2n1,nt,-11%,10,0.5,nt,
CC(=O)Nc1cc(C(=O)NCc2ccco2)ccc1Sc1ccc(F)cc1,-3,5%,-2,-0.4,-4,
CCOC(=O)C1C(=O)NCC1c1ccccc1 (stereo unspecified),10,-4%,8,-3.4,-17,
Cc1ccc(NC(=O)C2CCCN(C(=O)NCc3ccccc3)C2)c(C)c1 (stereo unspecified),nt,nt,4,0.2,nt,
CC1CCC2(CC1)NC(=O)N(CC(=O)Nc1ccc3c(c1)CCC3)C2=O (stereo unspecified),nt,0%,1,-2.7,nt,
CCCCc1cc(=O)oc2cc(C)cc(OCC(=O)NCc3cccnc3)c12,nt,nt,-7,-0.3,nt,
COc1ccc(O)c(C(=O)/C=C/c2cc3ccccc3o2)c1,nt,-5%,72,-4.4,-36,
CCCCC1CC(/C(C)=N/NC(N)=O)OC1=O (stereo unspecified),7,0%,7,-1.7,-92,
COc1ccc(C(=O)OC(COc2ccccc2)Cn2ccnc2)cc1 (stereo unspecified),1,13%,1,2.3,-28,
O=C(Cn1cnc2c(nnn2Cc2ccccc2)c1=O)NCc1ccccc1Cl,nt,1%,-3,nt,nt,
CC(=O)Nc1cccc(C(=O)/C=C/c2ccc(N(C)C)cc2)c1,5,8%,-1,-0.1,-20,
OC1CSc2nc3ccccc3n2C1 (stereo unspecified),0,0%,-3,-0.2,nt,
C=CCSc1nc2sc3c(c2c(=O)n1-c1ccccc1)CCN(C)C3,nt,nt,10,6.3,nt,
O=C(C1CCN(Cc2nc(-c3ccc(Cl)cc3)no2)CC1)N1CCOCC1,nt,3%,-1,0.1,nt,
Cc1ccc(S(=O)(=O)c2c(C)nn(-c3ccccc3)c2OC(=O)c2ccc(Br)o2)cc1,5,-6%,1,nt,-34,
O=[N+]([O-])c1cccc(-c2ncc3ccccn23)c1,19,1%,10,5.8,nt,
CC(=O)c1cc(C#N)c(Oc2ccc(F)cc2)nc1C,6,-3%,-6,2.4,-38,
CCCCNC(=O)NCc1cnn(C)c1C,1,7%,0,-2.7,9,
Cc1ccc(Nc2cc(-n3cccn3)ncn2)c(C)c1,8,6%,14,1.1,-7,
CCCCCN(C(=O)CCC(=O)OCC(=O)N(C)c1ccccc1)c1c(N)n(CCCC)c(=O)[nH]c1=O,nt,nt,-12,-5.2,nt,
Cn1c(=O)c(Oc2ccc(Cl)cc2)c(O)c2ccccc21,14,72%,100,-2.6,-22,
Cc1ccc(S(=O)(=O)N(CC(=O)N2CCOCC2)C2CCCCC2)cc1,11,-9%,1,-1.6,-10,Arbovirus anti repeat=5

# Sorted by number of heavy atoms (smallest number first): 4 of the compounds above.
SMILES,Arbovirus anti,Mtb growth,Mtb bLac sens,RecA intein inh,YopH inh,others
OC1CSc2nc3ccccc3n2C1 (stereo unspecified),0,0%,-3,-0.2,nt,
O=[N+]([O-])c1cccc(-c2ncc3ccccn23)c1,19,1%,10,5.8,nt,
CC(=O)c1cc(C#N)c(Oc2ccc(F)cc2)nc1C,6,-3%,-6,2.4,-38,
CC(=O)Nc1cccc(C(=O)/C=C/c2ccc(N(C)C)cc2)c1,5,8%,-1,-0.1,-20,

# (listing goes on)
SMILES,Arbovirus anti,Mtb growth,Mtb bLac sens,RecA intein inh,YopH inh,others
Cc1ccc([N+](=O)[O-])cc1-c1[nH]c(-c2ccc(O)c(O)c2)nc1-c1ccccc1,-38,-6%,-3,5.6,-3,
CCCCc1c(C)nn(-c2nnc3c4ccccc4n(CC)c3n2)c1C,-8,0%,85,0.9,-49,
Nc1nonc1-n1nnc(C(=O)N/N=C/c2ccc(Br)cc2)c1-c1ccc2c(c1)OCO2,nt,nt,7,3.0,nt,
CC(=O)c1ccc(S(=O)(=O)N2CCN(C(C)=O)CC2)cc1,9,-6%,-1,1.5,nt,
Clc1cccc(Oc2ncc(CN3CCOCC3)s2)c1,2,8%,-3,0.5,-21,
CS(=O)(=O)N(CC(=O)O)c1cccc(Cl)c1,7,9%,-4,-0.6,-47,
CCC1(c2ccc(F)cc2)NC(=O)N(CC(=O)Nc2cc(S(=O)(=O)N(C)C)ccc2Cl)C1=O (stereo unspecified),-8,4%,2,1.5,nt,
Fc1ccc(C2=Nn3c(nnc3-c3n[nH]c4c3CCC4)SC2)cc1,-17,3%,77,-0.3,-31,
O=C(Nc1ccc([N+](=O)[O-])cc1)Nc1ccc(Cl)cc1F,7,10%,0,2.0,nt,
COc1ccccc1CNC(=O)C(=O)c1cn(CC(=O)N2CCCC2)c2ccccc12,nt,nt,-4,0.2,nt,
CCCCC(=O)Nc1nc2c(OC)cc([N+](=O)[O-])cc2s1,-4,10%,-3,nt,nt,
Cc1cc(C)c(S(=O)(=O)N(C)CC(N)=O)c(C)c1,1,-8%,0,6.5,-6,
Fc1ccc(N2CCN(Cc3cnc(Oc4ccc(Br)cc4)s3)CC2)cc1,-1,-14%,-3,9.4,-28,
Cc1ccc(N(Cc2cc3ccc(C)cc3[nH]c2=O)S(=O)(=O)c2ccccc2)cc1,nt,nt,5,-1.7,nt,
CC(=O)c1cccc(NC(=O)C2C(c3ccccc3)C2(Cl)Cl)c1 (stereo unspecified),10,8%,8,4.6,nt,

# Entries listed so far containing two or more sulfur atoms, in the order listed:
SMILES,Arbovirus anti,Mtb growth,Mtb bLac sens,RecA intein inh,YopH inh,others
CN(C(=O)COC(=O)C1CCN(S(=O)(=O)c2ccc3c(c2)OCCO3)CC1)C1CCS(=O)(=O)C1 (stereo unspecified),nt,nt,-1,0.3,nt,
C=CCSc1nc2sc3c(c2c(=O)n1-c1ccccc1)CCN(C)C3,nt,nt,10,6.3,nt,

# Further entries.
SMILES,Arbovirus anti,Mtb growth,Mtb bLac sens,RecA intein inh,YopH inh,others
O=C(Nc1ccc(Cl)cn1)c1cccnc1,-7,1%,-10,-1.1,13,Arbovirus anti repeat=-7
COC(=O)c1ccccc1OCc1cccc(C)n1,-2,8%,3,-0.1,-28,
CCOc1ccc(C(=O)N[C@H](C(=O)O)C(C)C)cc1,5,1%,-9,2.8,-14,
O=C(c1cccs1)N1CCN(Cc2cccnc2)CC1,4,-5%,2,0.9,nt,
O=C(c1cc(COc2cccc(C(F)(F)F)c2)on1)N1CCC(c2ccncc2)CC1,nt,nt,97,2.8,nt,
CCCCOc1ccc(OCCCN2CCOCC2)cc1,-16,-2%,3,0.4,5,
CN(Cc1cnccn1)Cc1nc(Cc2cccc(F)c2)no1,-2,5%,4,0.5,nt,
O=Cc1cccn1-c1c(C(=O)O)cnn1-c1ccccc1,-1,-2%,3,-2.1,nt,
CCC(C)(C)C(=O)Nc1ccc(C(N)=O)cc1,2,-5%,9,2.4,-15,
CC(C)C(=O)Nc1cccc(C(=O)Nc2nnc(C(C)C)s2)c1,0,2%,5,-0.8,-46,
Cc1ccc(C(=O)OCC(=O)c2ccc[nH]2)s1,21,8%,68,nt,nt,
O=C(COC(=O)Cn1cnc2ccccc2c1=O)Nc1ccc(Cl)c(C(F)(F)F)c1,3,-6%,-3,-0.2,-26,
Cc1ccc(CNC(=O)Cn2ccc3cc(S(=O)(=O)N4CCCC4)ccc32)o1,nt,nt,14,-1.2,nt,
CN(C)CCNS(=O)(=O)c1ccc(N2CCN(c3ccc(F)cc3)CC2)c([N+](=O)[O-])c1,-41,4%,-2,2.3,-15,
O=C(NCC(c1ccco1)N1CCN(c2ccc(F)cc2)CC1)C(=O)NC1CCCC1 (stereo unspecified),nt,nt,8,-1.6,nt,

# Of the compounds above, these have an aryl thioether with sulfur outside any ring.
SMILES,Arbovirus anti,Mtb growth,Mtb bLac sens,RecA intein inh,YopH inh,others
N[C@@H](Cc1ccccc1)c1nnc(SCc2ccccc2Cl)o1,-10,-5%,-13,0.5,-7,
CC(=O)Nc1cc(C(=O)NCc2ccco2)ccc1Sc1ccc(F)cc1,-3,5%,-2,-0.4,-4,
C=CCSc1nc2sc3c(c2c(=O)n1-c1ccccc1)CCN(C)C3,nt,nt,10,6.3,nt,
